Vaccinia Venus – qHTS for Stage-Specific Inhibitors of Vaccinia Orthopoxvirus: Venus Reporter Primary qHTS | Potency, µM (highest dose often 36.5 µM), inactives show at the top dose activity change, negative = inhibition, hits mostly inhibitors | Vaccinia virus Venus reporter expression, fluorescence | hit rate 0.46% among 330,000; active means well fitted inhibition curve with a large enough effect; inconclusive means small, poorly fitted or top-dose-only effect; inactive means no such curve, though single readings can be large or run the other way; tested in A549 cells; further: nearly all actives have a fitted effect of over 30% in size; inactives centre near -10
Vaccinia mCherry – qHTS for Stage-Specific Inhibitors of Vaccinia Orthopoxvirus: mCherry Reporter Primary qHTS. Vaccinia virus mCherry reporter infection, fluorescence; about a quarter of the inactives have no number. Potency, µM (titrated, usually from 36.5 µM), for inactives: at the top dose activity change, negative = inhibition, actives largely listed as inhibitors. hit rate 0.63% among 310,000. AID 720579, 2013; active = well fitted inhibition curve with a large enough effect; inconclusive = small, poorly fitted or top-dose-only effect; inactive = no such curve, though single readings can be large or run the other way; tested in A549 cells; further: nearly all actives have a fitted effect of over 35% in size; inactives centre near -10
Starred values were filed as active, the others as inactive; i = inactive; ? = inconclusive; / = not tested or not shown; [ ] = remark or other dose. On the % scale 0 is the no-effect control and ±100 the full control effect; potency means the concentration at half of the fitted maximal effect.

SMILES	Vaccinia Venus	Vaccinia mCherry
Cc1onc(-c2ccccc2)c1C(=O)NCCN1Cc2ccccc2OC(c2ccsc2)C1 (stereo not given)	-8.6%	-1.1%
CC(C)(C)S(=O)N1Cc2cc(C(=O)NCC(F)(F)F)nc(-c3cccc(-c4cccc(F)c4)c3)c2[C@@H]1CCO (stereo not given in full)	?	?
CCOC(=O)C1=C(C)NC(=O)NC1C1CC=CCC1 (stereo not given)	-7.4%	-15.3%
Cc1cccc(NCc2nc(-c3ccccc3)no2)c1	-1.2%	-14.4%
CC(=O)N(c1ccc2ccccc2c1)C1SC(=O)N(c2cccc(C)c2)C1=O (stereo not given)	-9.0%	-7.1%
CN(CC(=O)Nc1ccccc1Br)CC(=O)NC(c1ccccc1)c1ccccc1	-4.4%	-3.9%
CC(C)(C)C(=O)Nc1ccc(N2CCN(C(=O)c3cccs3)CC2)cc1	-15.9%	i
Cc1ccc(CSc2nnc(-n3c(=O)c(C#N)cc4c(=O)n5cc(C)ccc5nc43)s2)cc1	4.0%	6.6%
CCOC(=O)C1=NOC2COC3(CCN(c4ncccn4)CC3)OCC12 (stereo not given)	-7.3%	-7.7%
O=c1oc2ccc3ccccc3c2cc1-c1nnc(Nc2cccc(F)c2)s1	-12.9%	-4.3%
Cc1c([N+](=O)[O-])oc2c1C(=O)NCCC2	-4.3%	i
Cc1cc(C(=O)N2CCC2(C)C(=O)NS(=O)(=O)c2cccc(Cl)c2)nn1C (stereo not given)	1.9%	26.1%
CCOC(=O)N1CCN(C(=O)CCCCCn2c(=S)[nH]c3cc4c(cc3c2=O)OCO4)CC1	-7.0%	-8.7%
CC1(C)C2CCC(CN)C1C2 (stereo not given)	-12.6%	i
O=C(COC(=O)c1ccccc1C(=O)c1ccc(Cl)cc1)NCC1CCCO1 (stereo not given)	-5.4%	-6.3%
COc1cc(N=CC2=C(O)c3ccccc3C2=O)cc(OC)c1	-9.6%	-12.6%
CCOc1cccc(-c2c(C(=O)N/N=C/c3ccsc3)nnn2-c2nonc2N)c1	-3.4%	i
Cc1ccc(NC(=O)CCC(=O)c2cccs2)c(Br)c1	-9.3%	i
CN(C)CCOc1ccc(-c2c(-c3ccsc3)sc3ccccc23)cc1	?	?
O=C(CSc1n[nH]c(=O)n1Cc1ccccc1)Nc1ccc(N2CCOCC2)cc1	-17.3%	i
O=C(c1cccs1)N1CCN(c2ncc(C(F)(F)F)cc2Cl)CC1	-15.4%	-6.8%
Cc1cccc(C(=O)N/N=C/c2ccc3c(c2)OCO3)n1	0.1%	-11.9%
CCCOc1ccc(N2CC(C(=O)Nc3ccc(N4CCOCC4)cc3)CC2=O)cc1 (stereo not given)	-14.2%	i
CC(=O)N1c2ccc(S(=O)(=O)NCC3CCC(C(=O)Nc4ccc(C)cn4)CC3)cc2CC1C (stereo not given)	-16.4%	-24.5%
COc1ccc(-c2nc3sc(CCNC(=O)C(=O)Nc4ccc(C)cc4C)c(C)n3n2)cc1	?	?
SMILES	Vaccinia Venus	Vaccinia mCherry
Cc1cc(C(=O)Nc2c(F)c(F)c(F)c(F)c2F)n(-c2ccccc2)n1	?	-25.5%
Cc1ccccc1CSCC(Nc1ccc(C(=O)O)cc1[N+](=O)[O-])C(=O)O (stereo not given)	-13.7%	-18.7%
CC(C)(C)NC(=O)CN(C(=O)CS(=O)CC(=O)Nc1ccc(F)cc1)c1ccc2c(c1)OCCO2 (stereo not given)	-10.2%	i
Cc1ccc(O)c(CNc2cccc(C)n2)c1	-5.9%	-25.3%
O=C(CN1CCCCCC1)N/N=C/c1cccc(Cl)c1Cl	-13.9%	-16.2%
CCn1c2ccccc2c2cc(NC(=O)CSc3nnc(-c4cccc(C)c4)o3)ccc21	-13.8%	/
CCc1cc2c(NCC3CCCO3)nc(C)nc2s1 (stereo not given)	-23.9%	/
CCOc1ccccc1C(=O)N[C@H](C(=O)Nc1ccc(OC)c(S(=O)(=O)N2CCOCC2)c1)C(C)C	-28.3%	-21.4%
CN1CCN(CCc2nc3cc(NC(=O)c4ccco4)ccc3n2C)CC1	0.7%[7.34 µM]	-14.6%[7.34 µM]
CCOc1cc(C2C(C(=O)OC)=C(C)NC3=C2C(=O)c2ccccc23)cc(Br)c1OCC (stereo not given)	-16.7%	-27.8%
Cc1onc(-c2ccccc2)c1C(=O)OCc1nnc(-c2ccc([N+](=O)[O-])cc2)o1	-18.9%	-4.0%
S=C(Nc1ccccc1)Nc1ccc2ccccc2c1	8.2%	-11.5%
CCC(C(=O)O/N=C(\N)c1ccccc1)c1ccccc1 (stereo not given)	-13.2%	-13.3%
Cc1ccc(N2CN(Cc3ccco3)CNC2=S)cc1	-6.8%	-8.3%
CCCn1c(SCC(=O)c2cc(C)ccc2C)n[nH]c1=O	-17.3%	/
N#Cc1cccc(NC(=O)CC2CCCC2)c1	-3.9%	-6.7%
CCOC(=O)C1=C(N)n2c(s/c(=C\c3ccncc3)c2=O)=C(C(=O)OCC)C1c1ccncc1 (stereo not given)	-7.6%	-12.6%
Cc1cccc(C)c1-n1nnnc1C(c1ccccc1OC(F)(F)F)N1CCN(C/C=C/c2ccccc2)CC1 (stereo not given)	-4.5%	i
O=C(Nc1ccccc1C(=O)O)c1ccccc1	-7.8%	i
O=C(NC1CCN(C(=O)Nc2cccc(Cl)c2)CC1)c1ccccc1	-0.1%	6.1%
Cn1c(=O)c2c(SCc3cccnc3)nc(C3CC3)nc2n(C)c1=O	-19.8%	i
CCCCCCCCCCCCCCCC[n+]1ccc(C)c2ccccc21	?	?
CCOc1ccc(NC(=S)N2CCN(S(=O)(=O)c3ccccc3)CC2)cc1	-13.7%	-14.8%
CC(=O)Nc1ccc(S(=O)(=O)NNC(=O)c2ccc(S(=O)(=O)N3CCCCC3)cc2)cc1	-3.0%	i
OCOCCCn1c(C2CCCN2c2nc(-c3ccc(F)cc3)cs2)nc2cc(Cl)c(N3CCCCC3)cc21 (stereo not given)	?	-29.9%
SMILES	Vaccinia Venus	Vaccinia mCherry
O=C(c1cccc(S(=O)(=O)N2CCCCC2)c1)N1CCN(S(=O)(=O)c2ccc(F)cc2)CC1	-15.3%	-5.2%
O=S1(=O)CC(N2CCCC2)CN1C1CCCC1 (stereo not given)	2.2%	i
COc1ccccc1NC(=O)C(=O)N(c1cccnc1)C(C(=O)NC(C)(C)C)c1ccccc1 (stereo not given)	-9.4%	-11.9%
CCOC(=O)Cc1csc(SCC(=O)Nc2ccc(C)cc2F)n1	-1.5%	-2.9%
O=C(c1ccccc1F)N1CCN(CC2CC3C=CC2C3)CC1 (stereo not given)	-10.1%	/
Cc1ccc2oc(=O)c3cnn(CC(=O)N(Cc4ccco4)C4CCCCC4)c3c2c1	-15.9%	i
CCOc1ccc(N(CC(=O)Nc2ccc(C)c(C)c2)S(C)(=O)=O)cc1	-12.4%	-4.4%
O=C(CCCn1c(=S)[nH]c2ccccc2c1=O)NCCSCc1ccccc1	-14.5%	0.5%
CCc1ccc([C@H]2[C@@H]3C(=O)C[C@@H]4C(=O)N(C5CCCCC5)C(=O)[C@@H]4[C@@H]3CN2S(=O)(=O)c2ccc(C)cc2)cc1	-10.7%	-12.5%
CN(C)c1cc2c(cc1NC(=O)c1ccc(F)cc1)n(C)c(=O)n2C	-12.2%	-14.0%
Cc1ccc(C)c(N(C(=O)Cn2nnc3ccccc32)C(C(=O)NCc2ccco2)c2ccncc2)c1 (stereo not given)	-20.5%	/
S=c1[nH]c2cc(Cl)c3cccnc3c2o1	-7.9%	-18.8%
COc1cc(/C=N/Nc2cccc3cccnc23)cc(OC)c1O	-9.1%	-11.0%
COc1ccc(CCNC(=O)c2ccco2)cc1	-13.0%	/
CCOc1ccc(OCC)c(NC(=O)CN(C)S(=O)(=O)c2ccc3nc(C)sc3c2)c1	-23.8%	?
O=C1Nc2cnc(Cl)nc2Nc2ccccc21	6.8%	i
CCC1CCCCN1CCCNC(=O)C1CCC(=O)N1Cc1ccc(C)cc1 (stereo not given)	-2.8%	/
O=C1COc2ccc(-c3cc(-c4ccc(F)cc4)c4c(n3)-c3cc(Cl)ccc3OC4)cc2N1	-2.0%	1.7%
CC(=O)CSc1ncnc2nc[nH]c12	-17.9%	-25.3%
CCCCS(=O)CC(COCc1ccccc1)OC(=O)CSc1nc(C)cc(C)n1 (stereo not given)	-3.6%	-7.5%
COC(=O)c1scc(C)c1N/N=C(\C)c1ccc(F)cc1F	-3.3%	/
O=C(CNc1ccccc1F)Nc1cccc(S(=O)(=O)N2CCCCC2)c1	-12.7%	-18.0%
CC1(C)CC(N(Cc2cccs2)C(=O)c2ccco2)CCO1 (stereo not given)	-16.6%	/
CCN(CC)S(=O)(=O)c1cc(NC(=O)CCCOc2ccc(C(C)=O)cc2)ccc1C	?	-14.6%
COc1cc2nc(Cl)nc(N3CCOCC3)c2cc1OC	-19.0%	-18.3%
SMILES	Vaccinia Venus	Vaccinia mCherry
O=C(CCCCCN1C(=O)c2cccc3cccc(c23)C1=O)NCc1cccnc1	10.0%	i
Cc1cc(NC(=O)c2ccc(COc3ccc(Cl)c(C)c3)o2)no1	-5.3%	-14.3%
O=C(COC(=O)C1=Cc2ccccc2OC1)NCc1ccc(F)cc1	-6.9%	-20.6%
CCCNC(=O)CCc1c(C)nc2nc(C)nn2c1C	-2.7%	i
CCCC(=O)N1CCOCC1c1cc(C(=O)Nc2ccccc2)no1 (stereo not given)	1.4%	0.4%
Cc1nnc(-c2ccc(Cl)cc2)nc1NCCN(C)C	-1.8%	i
COc1ccc(NC(=O)C(=O)N/N=C(\C)CC(=O)Nc2ccccn2)c(OC)c1	8.2%	?
COc1ccc(CCNC(=O)c2ccc(=O)[nH]c2)cc1OC	-1.9%	-9.1%
COc1ccc(S(=O)(=O)N2CCOC23CCN(S(C)(=O)=O)CC3)cc1	-8.6%	-5.7%
O=C(COC(=O)C1CC(O)CN1C(=O)Oc1ccccc1)c1ccc(Br)cc1 (stereo not given)	-4.3%	-12.7%
Cc1noc(C)c1NC(=O)N(C)C[C@@H]1OCc2cnnn2CCCC(=O)N([C@@H](C)CO)C[C@@H]1C	-0.1%	i
O=C(O)/C=C/C(=O)Nc1ccc(-n2nccc2C(F)(F)F)cc1	-5.5%[7.34 µM]	-4.6%[7.34 µM]
CN(c1cccc(NC(=O)CN(c2ccc(C34CC5CC(CC(C5)C3)C4)cc2)S(C)(=O)=O)c1)S(C)(=O)=O	?	?
O=C(NCc1cccnc1)C1CCN(S(=O)(=O)c2cc(Cl)ccc2Cl)CC1	-3.7%	-25.9%
Cc1ccc(C)c(C(O)c2ncc(-c3cccc4ccccc34)[nH]2)c1 (stereo not given)	1.4%	0.6%
CCNc1nc(C#N)nc(N2CCOCC2)n1	-3.9%	25.8%
CC1CCCCN1c1c(S(=O)(=O)c2ccc(Cl)cc2)cnc2ccccc12 (stereo not given)	-8.1%	i
O=[N+]([O-])c1cccc(S(=O)(=O)N2CCC(c3nc(-c4ccncc4)no3)CC2)c1	1.8%	-5.7%
CCn1nnc(NC(=O)c2ccco2)n1	-2.7%	8.2%
COCCCNc1nc2c(c(=O)[nH]c(=O)n2C)n1CC(O)COc1ccccc1C (stereo not given)	0.1%	i
O=C(NCc1ccco1)c1c(Cl)cccc1Cl	-5.2%	-9.8%
COc1cc2c(cc1OC)C(c1ccc([N+](=O)[O-])cc1)N(C(C)=O)CC2 (stereo not given)	-9.5%	-3.0%
Cc1cc([N+](=O)[O-])nn1CC(=O)Nc1nc2ccccc2s1	-0.1%	-13.2%
Cc1ccc(OCC(=O)Nc2ccc3nc(SCC(N)=O)sc3c2)cc1	-0.2%	-4.4%
CCn1ccnc1CN(C)C(=O)C1CCC(=O)N(Cc2cccc(C(F)(F)F)c2)C1 (stereo not given)	-19.3%	i
SMILES	Vaccinia Venus	Vaccinia mCherry
CCOc1cccc(C2C=C(c3ccc4c(c3)OCO4)NC(c3ccccc3Cl)N2)c1O (stereo not given)	-7.5%	-0.6%
O=S(=O)(Nc1cccc(-n2cnnn2)c1)c1cccc(Cl)c1	-10.0%	?
CCOC(=O)C1=C(CNC2CCCCC2)NC(=O)NC1c1cc(C)ccc1C (stereo not given)	-5.1%	/
CCNC(=O)C1(C)CCN(C(=O)c2ccc(C(=O)OC)cc2)C1 (stereo not given)	-4.7%	i
O=C1Nc2ccccc2C12OCC(COc1ccc(Cl)cc1)O2 (stereo not given)	?	-5.9%
CN(CC(=O)Nc1c(Cl)cccc1Cl)C(=O)CNC(=O)c1ccc2ccccc2c1	-15.6%	-6.3%
COc1cccc(C2CC3C(=O)C=CC2N3Cc2ccccc2)c1 (stereo not given)	-0.6%	-13.2%
COc1ccc(Cc2c(-c3cccc(Cl)c3)nc3ccc(C)cn23)c(C)c1	-8.4%	-25.1%

Source: PubChem BioAssay
